Bioassay records from PubChem.
Ba CapD inh – blocks the Bacillus anthracis CapD enzyme; purified CapD enzyme, fluorescence intensity read-out; stronger effect = lower value; some hits fall short of the stated cut; z-score (concentration not given with the values); 140,000 compounds, 0.23% hits; AID 492967;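 active = z-score under -4 in either of two replicates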;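 also: stock transfer was 100 nL into about 40 µL; score is relative to mean and spread of the plate; one replicate is shown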
AID504770 – growth inhibitors of E. coli YBA685 in a screen for V. cholerae RctB (chromosome II replication) inhibitors; E. coli YBA685 rctB-dependent plasmid, OD600 growth, 3 h; stronger effect = lower value; z-score (concentration not given with the values); 130,000 compounds, 0.27% hits; AID 504770;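 active = z-score under -2 on both plates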;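 also: wells of about 30 µL received 100 nL stock; score is relative to mean and SD of the test wells; the first replicate is given; strong numbers were not always called active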
* marks the source's active call; other numbers are inactive results.

For O=C(Nc1cccc(-c2cnco2)c1)C1COc2ccccc2O1 (centres undefined) the results were Ba CapD inh 1.7 and AID504770 -1.4.
Screening O=C(Nc1ccc(S(=O)(=O)Nc2ccccc2Oc2ccc(Cl)cc2Cl)cc1)C1CC1 returned Ba CapD inh -0.04 and AID504770 1.1.
COC(=O)c1ccc2c(=O)n(CCc3ccc(OC)c(OC)c3)c(SCC(=O)Nc3ccc(OC)cc3OC)nc2c1 was read as Ba CapD inh 0.34.
COc1ccc(NC(=O)CCCn2c(=O)c3sccc3n(Cc3ccccc3F)c2=O)cc1 was read as Ba CapD inh -0.72 and AID504770 -0.2.
CC(=O)N1c2ccccc2NC2=C(C(=O)CC(c3cccc([N+](=O)[O-])c3)C2)C1c1ccc(Cl)cc1 (centres undefined) was read as Ba CapD inh 0.27.
`CCCSc1nc2ccccc2c(=O)n1-c1ccccc1F` gave Ba CapD inh 0.065 and AID504770 -0.65.
For CC(=O)Nc1ccc(C(=S)NCC(c2ccco2)N2CCCCC2)cc1 (centres undefined) the results were AID504770 -0.8.
`Cc1ccc(Oc2cccc(/C=N/NC(=O)CC3OC(=O)c4ccccc43)c2)cc1` (centres undefined) gave Ba CapD inh -1.3.
`CC1CN=C(N(C(=O)Nc2ccccc2)c2ccc(OC(F)(F)F)cc2)S1` (centres undefined) gave Ba CapD inh -0.06 and AID504770 1.6.
`CCOc1ccc(NC(=O)CCC(=O)n2nc(-c3ccccc3)cc2-c2ccccc2)cc1` gave Ba CapD inh 0.36 and AID504770 -0.35.
For CCN(CC)CC#CCN1c2ccccc2Sc2ccccc21 the results were Ba CapD inh -0.34 and AID504770 0.6.
CC(=O)N/C(=C\c1ccccc1)C(=O)NC1CCCCC1C (centres undefined) was read as Ba CapD inh -0.47 and AID504770 1.8.
Screening COC(=O)/C=c1\sc2nc(N)nn2c1=O returned AID504770 0.
CN(Cc1ccccc1)C(=O)CSc1cc(=O)n(C)c2ccccc12 was read as Ba CapD inh 9.8 and AID504770 2.3.
COc1cccc(C2N(c3ccc(C)cc3)N=C(C(C)=O)N2c2cccc(C)c2)c1OCc1ccccc1 (centres undefined) was read as Ba CapD inh -0.37.
For CCOC(CNc1nc(-c2ccc(C)cc2)nc2ccccc12)OCC the results were Ba CapD inh 1.
c1ccc(Oc2ccc(-c3ccnc4nc(N5CCOCC5)nn34)cc2)cc1 was read as Ba CapD inh 1.4.
`COc1cccc(C2C3=C(CC(C)(C)CC3=O)OC3=C2C(=O)CC(C)(C)C3)c1OCc1ccccc1Cl` gave Ba CapD inh -0.4.
`CCC1C(=O)N=C(SCC(=O)Nc2ccc(C(=O)OC)cc2)NC1=O` (centres undefined) gave Ba CapD inh -0.5 and AID504770 2.1.
`CN1C(=O)c2ccc(C(=O)NCc3ccccc3)cc2C1=O` gave Ba CapD inh -0.17 and AID504770 0.5.

Nothing new here: 3 of the compounds above.
`COc1cccc(C2C3=C(CC(C)(C)CC3=O)OC3=C2C(=O)CC(C)(C)C3)c1OCc1ccccc1Cl` gave Ba CapD inh -0.4.
`CCC1C(=O)N=C(SCC(=O)Nc2ccc(C(=O)OC)cc2)NC1=O` (centres undefined) gave Ba CapD inh -0.5 and AID504770 2.1.
`CN1C(=O)c2ccc(C(=O)NCc3ccccc3)cc2C1=O` gave Ba CapD inh -0.17 and AID504770 0.5.

New compounds follow
For N#CC(Sc1ncc(C(F)(F)F)cc1Cl)c1ccc(Cl)cc1 (centres undefined) the results were Ba CapD inh -0.11.
Brc1ccccc1-c1nnc2sc(-c3cccs3)nn12 was read as Ba CapD inh -0.22 and AID504770 -1.6.
Screening CC1(C)CC(=O)C=C(Sc2nc3cc(Cl)ccc3s2)C1 returned Ba CapD inh -0.61 and AID504770 -0.85.
CCOC(=O)CSc1nnc(-c2ccccc2)c(-c2ccccc2)n1 was read as Ba CapD inh -0.28.
Screening O=C(/C=C/c1ccccc1)N1CCCC1 returned Ba CapD inh 0.09 and AID504770 0.2.
CC1(C)CC(C)(c2ccc(O)cc2O)N(c2cccc(C(F)(F)F)c2)C(=S)N1 (centres undefined) was read as Ba CapD inh 0.08.
`CCn1c(SCC(=O)Nc2cccc(Cl)c2Cl)nc2ccccc2c1=O` gave Ba CapD inh -0.055 and AID504770 0.9.
For O=C(NCc1ccccc1)C1CCN(c2nc3ccc(Br)cc3s2)CC1 the results were Ba CapD inh -0.21 and AID504770 -0.25.
`Cc1cc(SCC(N)=O)n2c(nc3ccccc32)c1C#N` gave AID504770 -0.15.
For COc1ccc(CCCOC(=O)NCCc2cccc(Cl)c2)cc1 the results were Ba CapD inh 0.32.
`COc1cccc(NC(=O)CSc2cccc[n+]2[O-])c1` gave AID504770 -0.6.
CCCCN(CC)S(=O)(=O)c1c(C)[nH]c(=O)[nH]c1=O was read as Ba CapD inh 0.65 and AID504770 -0.05.
`Cc1c(C(=O)O)oc2ccc3c(c12)C(O)CC1(CCCC1)O3` (centres undefined) gave Ba CapD inh 30 and AID504770 0.75.
COC(=O)c1cc(NC(=O)c2c(-c3ccccc3)noc2C)cc(C(=O)OC)c1 was read as Ba CapD inh 1.2 and AID504770 1.7.
Cc1[nH]nc2c1C1(C(=O)N(CCc3ccccc3)c3ccccc31)C(C#N)=C(N)O2 (centres undefined) was read as Ba CapD inh 0.025.
CCN(CCCNC(=O)c1sc2ncn(CC(=O)N3CCCCC3C)c(=O)c2c1C)Cc1ccccc1 (centres undefined) was read as Ba CapD inh -0.35.
Screening O=c1cc(CO)oc(C(Nc2ccccn2)c2ccccc2O)c1O (centres undefined) returned Ba CapD inh 2.1 and AID504770 -0.85.
`CCCCC1=NN2C(=N)/C(=C\c3cccn3-c3ccc(OC)c(Cl)c3)C(=O)N=C2S1` gave Ba CapD inh -0.14 and AID504770 0.4.
O=C1c2ccccc2C(=O)N1CCc1nc(=S)[nH][nH]1 was read as Ba CapD inh 0.02 and AID504770 -1.4.
Screening O=C(NCCc1ccc(Cl)cc1)C1CCCO1 (centres undefined) returned Ba CapD inh -0.67 and AID504770 -0.05.

Some of these compounds in order of SMILES length, lowest first.
Screening O=C(NCCc1ccc(Cl)cc1)C1CCCO1 (centres undefined) returned Ba CapD inh -0.67 and AID504770 -0.05.
Screening O=c1cc(CO)oc(C(Nc2ccccn2)c2ccccc2O)c1O (centres undefined) returned Ba CapD inh 2.1 and AID504770 -0.85.
`Cc1c(C(=O)O)oc2ccc3c(c12)C(O)CC1(CCCC1)O3` (centres undefined) gave Ba CapD inh 30 and AID504770 0.75.
COC(=O)c1cc(NC(=O)c2c(-c3ccccc3)noc2C)cc(C(=O)OC)c1 was read as Ba CapD inh 1.2 and AID504770 1.7.
Cc1[nH]nc2c1C1(C(=O)N(CCc3ccccc3)c3ccccc31)C(C#N)=C(N)O2 (centres undefined) was read as Ba CapD inh 0.025.
CCN(CCCNC(=O)c1sc2ncn(CC(=O)N3CCCCC3C)c(=O)c2c1C)Cc1ccccc1 (centres undefined) was read as Ba CapD inh -0.35.

(next part)
For COCc1cc(=O)oc2n[nH]c(C)c12 the results were Ba CapD inh -1.2.
Screening COc1c(CO)cc(CO)cc(CO)c1=O returned Ba CapD inh -1.1 and AID504770 0.15.
Cn1c(=O)c([N+](=O)[O-])c(NCCc2ccccc2)c2ccccc21 was read as Ba CapD inh -0.46.
For S=c1[nH]n(Cc2ccccc2)c(=NCc2ccccc2)s1 the results were Ba CapD inh -0.15 and AID504770 -0.95.
Screening COc1ccccc1NC(=O)C(C)OC(=O)c1ccc(NS(=O)(=O)c2ccc3[nH]c(=O)[nH]c3c2)cc1 (centres undefined) returned AID504770 0.2.
For CC1=CC(C)(C)N(Cc2ccccc2)c2ccccc21 the results were Ba CapD inh 42 and AID504770 0.05.
Screening COc1ccc(-c2c(C)c3ccc(O)cc3oc2=O)cc1OC returned AID504770 -1.2.
Screening COc1ccc(NS(=O)(=O)c2ccc3c(c2)CCO3)cc1 returned Ba CapD inh -0.28 and AID504770 0.05.
Screening O=C(NCCN1CCOCC1)c1csc2c1CCCC2 returned Ba CapD inh -0.31 and AID504770 -1.
`O=C(NCCCn1ccnc1)c1ccc(Oc2ccccc2)cc1` gave Ba CapD inh -0.88 and AID504770 0.5.
Screening O=C(CNC(=O)c1cccs1)NCc1cccs1 returned Ba CapD inh -0.015 and AID504770 -0.15.
`CCN1C(=O)c2ccccc2Sc2ccc(C(=O)NCCc3ccccc3)cc21` gave Ba CapD inh 0.47 and AID504770 -0.4.
O=C1c2ccccc2C(=O)N1CCc1ncn[nH]1 was read as Ba CapD inh -1.3 and AID504770 1.1.
O=C(COC(=O)/C=C/c1ccc(Br)o1)Nc1ccccc1 was read as Ba CapD inh 0.74 and AID504770 0.15.
Screening S=c1cc(-c2ccccc2)oc(-c2ccccc2)c1 returned Ba CapD inh -0.33 and AID504770 -0.4.
CCC(C(=O)Nc1ccccc1OC)n1c(C(=O)OC)cc2ccsc21 (centres undefined) was read as Ba CapD inh 0.67 and AID504770 -0.75.
`O=Nc1c(O)n(CC(=O)Nc2ccccc2)c2ccccc12` gave Ba CapD inh -0.62 and AID504770 2.
Screening C[C@@H]1C[C@H]2[C@@H]3C[C@H](F)C4=CC(=O)C=C[C@]4(C)[C@@]3(F)[C@@H](O)C[C@]2(C)[C@@]1(O)C(=O)CO returned Ba CapD inh 0.015.
`COc1cccc(C2(O)CCN(C(=O)C3CCC3)CC2)c1` gave AID504770 0.65.
O=C1c2ccccc2C(=O)N1C1CCCCC1N1C(=O)c2ccccc2C1=O (centres undefined) was read as AID504770 0.
`CCCc1nc2nc(C)cc(Cl)n2n1` gave Ba CapD inh -0.16 and AID504770 -0.4.
For COc1ccccc1N1CC(C)(C)C(=O)NC1=S the results were Ba CapD inh 0.44.
Screening COC(=O)C1=C(C)NC(SCC(=O)c2cccs2)=C(C#N)C1c1ccc2c(c1)OCCO2 (centres undefined) returned Ba CapD inh -0.31 and AID504770 -0.5.
Screening Cc1ccccc1Nc1nc(N)nc(COC(=O)CCN2C(=O)C3CC=CCC3C2=O)n1 (centres undefined) returned AID504770 0.
CS(=O)(=O)N1CCN(C2c3ccccc3-c3ccccc32)CC1 was read as Ba CapD inh 0.12 and AID504770 1.
For Cc1cnc(NC(=O)C(C)N2CCN(C)CC2)s1 (centres undefined) the results were AID504770 0.
COc1cc(C(=O)OCC(=O)NC2CCS(=O)(=O)C2)ccc1OCc1c(C)noc1C (centres undefined) was read as AID504770 -0.4.
`N#CCCC1C(=O)CCCC1=O` gave Ba CapD inh -0.58 and AID504770 -0.45.
`COc1ccccc1N1CCN(C(=O)CNC(=O)Cn2cnc3sc(C)c(C)c3c2=O)CC1` gave Ba CapD inh 0.52.
CC(C)c1ccc(-c2ncc(CSc3nnc(CN4CCCCCC4=O)o3)s2)cc1 was read as AID504770 -0.65.
`C=CCNC(=O)c1cc2cccc(OC)c2oc1=O` gave AID504770 -1.1.
Oc1ccccc1C/C=C/c1ccccc1 was read as Ba CapD inh -0.13 and AID504770 -0.75.
`Cc1ccc(Cn2c(=O)cc(C(=O)NC3CCCCC3)c3ccccc32)cc1` gave Ba CapD inh 0.49 and AID504770 0.35.
`CC(=O)OCc1c(C(F)(F)F)nn(C)c1S(=O)(=O)c1ccc(Cl)cc1` gave Ba CapD inh 0.35.
`O=C(c1ccccc1Cl)N1c2ccccc2Sc2ccc(C(F)(F)F)cc21` gave Ba CapD inh 0.1.
Screening Cc1ccc(-c2csc(NC(=O)CSC(C)(C)C)n2)o1 returned AID504770 -0.45.
CCC(C)NC(=O)C1CCC(=O)N(c2ccc(OC)cc2)C1c1ccc(OC)c(OC)c1 (centres undefined) was read as Ba CapD inh -0.11 and AID504770 2.
CCOC(=O)C1(C)C/C(=N\NC(=O)c2ccccc2)C(=O)N1c1ccccc1 (centres undefined) was read as Ba CapD inh -0.29.
`Cc1sc(N2CCOCC2)nc1-c1ccc(-c2ccccc2F)cc1` gave Ba CapD inh 15.
O=C(Nc1ccc(O)c(-c2nc3ccccc3o2)c1)C1(c2ccccc2)CCCC1 was read as Ba CapD inh -0.56 and AID504770 0.1.
`Cc1ccc(C2N=C3C=C(NC(=O)c4cccnc4)C=CC3O2)cc1C` (centres undefined) gave Ba CapD inh 1.2 and AID504770 0.25.
Cc1cccc(-c2nc(CSCC(=O)NCc3ccccc3)c(C)o2)c1 was read as Ba CapD inh -0.29 and AID504770 -0.55.
For CCOCCOc1ccc2oc(C(=O)CC(=O)OCC)cc(=O)c2c1 the results were Ba CapD inh 1.9.
For O=C(OCC1CC1)c1sc2ccccc2c1Cl the results were Ba CapD inh -0.79 and AID504770 -0.1.
`Cc1cc(C(=O)CSc2nncn2C)c(C)n1CC1COc2ccccc2O1` (centres undefined) gave AID504770 -0.9.
Screening O=C(Nc1ccc2c(c1)ncn2C1CCCCC1)c1cc2ccccc2o1 returned Ba CapD inh -0.5 and AID504770 0.2.
For COc1nc(C)[nH]c(=O)c1N the results were AID504770 0.45.
For Cc1nc(N2CCN(C)CC2)c2c(C)c(C(=O)Nc3ccccn3)sc2n1 the results were Ba CapD inh 1.2.
Screening COc1ccccc1-c1nn2c(C)nnc2s1 returned Ba CapD inh 16 and AID504770 0.2.
O=C(CN1C(=O)C2(OCCCO2)c2ccccc21)NCCc1ccccc1 was read as Ba CapD inh -0.22 and AID504770 -0.15.
`N#CC(C(N)=O)=C1CCCCC1` gave AID504770 -0.25.
For CCOC(=O)c1ccc2c(c1)C(=O)N(C1CCCCC1)C2=O the results were Ba CapD inh 17 and AID504770 -1.7.
`C=CCn1c(SCC(=O)O)nnc1-c1ccc2c(c1)OCO2` gave Ba CapD inh -0.085 and AID504770 -0.1.
Screening COc1ccc2c(c1)c1c(c(=O)n(Cc3ccccc3)c(=O)n1C)n2C returned Ba CapD inh 19 and AID504770 0.15.
Screening Cc1nn(C)cc1CN1CCN(C(=S)NCCc2ccccc2)CC1 returned Ba CapD inh 0.86 and AID504770 0.1.
Screening O=C(Cn1c(CSc2ccccc2)nc2ccccc21)Nc1ccccc1 returned Ba CapD inh -0.29.
`CCOC(=O)C1=C(C)N=c2s/c(=C/c3cc(Br)ccc3OC)c(=O)n2C1c1ccc2c(c1)OCO2` (centres undefined) gave Ba CapD inh -0.46.
Screening C/C(Cc1nc2ccccc2[nH]1)=N/NC(=O)c1ccccc1 returned Ba CapD inh -0.15 and AID504770 1.9.
